Tg IFNy HTS – blocks Toxoplasma gondii growth in the presence of IFN-gamma. Toxoplasma gondii growth in IFN-gamma-treated host cells; stronger effect = lower value; reference of the scale not given here. activity change, negative = inhibition, %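 (about 20 µM by stock and volumes)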. hit rate 3.8% among 69,000;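 active = below -70%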;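 note: host cells are HeLa cells infected with Toxoplasma gondii; parasite growth read as luciferase light; one replicate is shown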
* marks the source's active call; other numbers are inactive results.

The first 5 entries, to show the layout:
How did CCCNC(=O)N1CCc2nc(-c3ccc(C)cc3)sc2C1 do in these assays?
Tg IFNy HTS: 6

What do the screens show for `NC(=O)N1CCO[C@]2(CCC[C@H]2COCC(=O)N2CCCC2)C1`?
Tg IFNy HTS: -2

How did O=C(Cn1c(=O)cc(-c2nc(C3CC3)no2)c2ccccc21)Nc1ccccc1 do in these assays?
Tg IFNy HTS: -53

Results for COCC1CCC2(CCN(C(=O)COc3ccccc3C)CC2)N1C (stereo not given) ?
Tg IFNy HTS: 11

How did Fc1ccccc1N1CCC2(CC1)CC(c1cccnc1)CO2 (stereo not given) do in these assays?
Tg IFNy HTS: 1

The listing, repeating the preview:
How did CCCNC(=O)N1CCc2nc(-c3ccc(C)cc3)sc2C1 do in these assays?
Tg IFNy HTS: 6

What do the screens show for `NC(=O)N1CCO[C@]2(CCC[C@H]2COCC(=O)N2CCCC2)C1`?
Tg IFNy HTS: -2

How did O=C(Cn1c(=O)cc(-c2nc(C3CC3)no2)c2ccccc21)Nc1ccccc1 do in these assays?
Tg IFNy HTS: -53

Results for COCC1CCC2(CCN(C(=O)COc3ccccc3C)CC2)N1C (stereo not given) ?
Tg IFNy HTS: 11

How did Fc1ccccc1N1CCC2(CC1)CC(c1cccnc1)CO2 (stereo not given) do in these assays?
Tg IFNy HTS: 1

Results for CCCCOC(=O)c1ccc(NC(=O)CSc2nnnn2C2CCCCC2)cc1 ?
Tg IFNy HTS: 13

What do the screens show for `Cc1ccc2oc(C(=O)NCCOc3nonc3C)cc2c1`?
Tg IFNy HTS: -4

Results for COc1nc(-c2ccc(Cl)cc2Cl)nc2ccccc12 ?
Tg IFNy HTS: -31

What do the screens show for `CC(=O)NCCc1csc(C2CCN(C(=O)NCc3cccc(F)c3)CC2)n1`?
Tg IFNy HTS: -2

How did CCOCC1c2c(ncn2C(C)C)CCN1C(=O)C1CC1 (stereo not given) do in these assays?
Tg IFNy HTS: -14

Fetched by compound from the list above:
How did CCOCC1c2c(ncn2C(C)C)CCN1C(=O)C1CC1 (stereo not given) do in these assays?
Tg IFNy HTS: -14

How did Fc1ccccc1N1CCC2(CC1)CC(c1cccnc1)CO2 (stereo not given) do in these assays?
Tg IFNy HTS: 1

How did O=C(Cn1c(=O)cc(-c2nc(C3CC3)no2)c2ccccc21)Nc1ccccc1 do in these assays?
Tg IFNy HTS: -53

What do the screens show for `CC(=O)NCCc1csc(C2CCN(C(=O)NCc3cccc(F)c3)CC2)n1`?
Tg IFNy HTS: -2

The list continues.
What do the screens show for `CN1C(=O)c2cc(NC(=O)c3cccc(Cl)c3)ccc2OC[C@H]2O[C@@H](CC(=O)NC3CCCCC3)CC[C@@H]21`?
Tg IFNy HTS: -34

What do the screens show for `COc1ccc(CN(C)CCc2ccccn2)cc1OC`?
Tg IFNy HTS: 23

How did CC1CCN(S(=O)(=O)c2ccc3c(c2)CCC(=O)N3CC(=O)NCCc2ccccc2)CC1 do in these assays?
Tg IFNy HTS: -27

How did Cc1ncc(C)c(-c2cccc(OC(C)C)c2)n1 do in these assays?
Tg IFNy HTS: -3

How did CCOC(=O)C1CCC(CNC(=O)N2CCC3(CC2)Nc2cc(OC)ccc2-n2cccc23)CC1 (stereo not given) do in these assays?
Tg IFNy HTS: 39

What do the screens show for `COC(=O)c1ccc(Oc2ncnc3scc(-c4ccccc4)c23)o1`?
Tg IFNy HTS: 28

Results for Cc1ccc(N(CC(=O)N2CCC(=O)NCC2C)S(C)(=O)=O)cc1 (stereo not given) ?
Tg IFNy HTS: 12

Results for CCCc1nnc(C(=O)N2CCCOC(CN3CCCC3)C2)o1 (stereo not given) ?
Tg IFNy HTS: 2

What do the screens show for `COc1cc(CNC(=O)C2(C)CCN(C(=O)c3ccc(C(C)(C)C)cc3)CC2)cc(OC)c1`?
Tg IFNy HTS: -46

How did c1ccc(-c2csc3ncnc(NCC4CCCO4)c23)cc1 (stereo not given) do in these assays?
Tg IFNy HTS: -60

What do the screens show for `CCCN1CCCC[C@H]1C(=O)Nc1c(C)cccc1C`?
Tg IFNy HTS: 9

How did O=C(CCCCC(=O)NC1CCCC1)NC1CCCC1 do in these assays?
Tg IFNy HTS: 12

How did CCCn1ncc(C(=O)NCCN2CCc3ccccc3C2)c1C do in these assays?
Tg IFNy HTS: 5

Results for COc1ccc(-c2nc(Cn3nnc(-c4nc(-c5ccc(Cl)cc5)no4)c3C)c(C)o2)cc1 ?
Tg IFNy HTS: 9

Results for CCN1C(=O)CCCC12CCCN(C(=O)c1ccc3ccccc3n1)C2 (stereo not given) ?
Tg IFNy HTS: -47

Results for COc1ccc(NC(=O)N[C@@H]2CC[C@H](CCNC(=O)CN3CCOCC3)O[C@H]2CO)cc1 ?
Tg IFNy HTS: 16

Results for CCOCC1CN(C(=O)c2cc(C)no2)Cc2cncn2C1 (stereo not given) ?
Tg IFNy HTS: 2

How did O=C(c1ccc(N2CC[C@@H](c3ccc4c(c3)OCO4)[C@H](O)C2)nc1)N1CCCC1 do in these assays?
Tg IFNy HTS: -27

What do the screens show for `Cc1cccc(-c2ccc([C@@H]3[C@@H]4CN(C(=O)CN(C)C)C[C@H]3N4)cc2)c1`?
Tg IFNy HTS: -27

What do the screens show for `CC(=O)N1CCC2(CC1)OC(=O)C(C)=C2C(=O)NCCc1ccc(Cl)cc1`?
Tg IFNy HTS: 27

How did Cc1ccc(Cl)cc1N1CCN(C(=O)c2csc(C(=O)NC3CC3)n2)CC1 do in these assays?
Tg IFNy HTS: 93

Results for O=C(Nc1cccc(F)c1)c1c(O)c2cccnc2n(-c2ccccc2)c1=O ?
Tg IFNy HTS: 10

Results for COc1ccc(-n2c(=O)c(C(=O)NCC3CCCO3)c(O)c3cccnc32)cc1 (stereo not given) ?
Tg IFNy HTS: 89

How did Cc1ccc(Cl)cc1NC(=O)CN1C(=O)CCc2cc(S(=O)(=O)N3CCCCC3)ccc21 do in these assays?
Tg IFNy HTS: 0

Results for O=S(=O)(c1ccc2c(c1)OCCO2)N1CCN(c2ccc(C(F)(F)F)cn2)CC1 ?
Tg IFNy HTS: -88*

How did C[C@H]1CN([C@@H](C)CO)C(=O)CCCn2nncc2CO[C@H]1CN(C)Cc1cccc2c1OCCCO2 do in these assays?
Tg IFNy HTS: 126

How did CC(=O)N1CCO[C@H]2CN(c3cccc(F)c3)CC[C@@H]2C1 do in these assays?
Tg IFNy HTS: 253

What do the screens show for `Cc1ccc(C2=NC3(CCN(CC(=O)Nc4ccccc4C(F)(F)F)CC3)NC2=O)cc1`?
Tg IFNy HTS: 4

How did Cc1ccc(Cc2ccccc2C(=O)N2CCn3c(C(N)=O)cnc3C2)cc1 do in these assays?
Tg IFNy HTS: -4

How did CCn1c2ccc(F)cc2c2nc(C)sc21 do in these assays?
Tg IFNy HTS: 43

What do the screens show for `COc1ccc(NC(=O)N(C)C[C@H]2Oc3ccc(NC(=O)Nc4cccc5ccccc45)cc3CC(=O)N([C@H](C)CO)C[C@H]2C)cc1`?
Tg IFNy HTS: -45

What do the screens show for `CCC(C)Nc1nc(-c2ccc(Cl)cc2)nc2ccccc12` (stereo not given)?
Tg IFNy HTS: -43

How did c1ccc(-c2nn3c(c2-c2ccnc4cc(OCCN5CCOCC5)ccc24)CCC3)nc1 do in these assays?
Tg IFNy HTS: -78*

Results for O=C(O)CCCCCN=C1CCc2ccccc2N1 ?
Tg IFNy HTS: 26

Results for CCC1(O)CC2CN(CCc3c([nH]c4ccccc34)C(C(=O)OC)(c3cc4c(cc3OC)N(C)C3C(O)(C(=O)OC)C(C(=O)OC)C5(CC)C=CCN6CCC43C65)C2)C1 (stereo not given) ?
Tg IFNy HTS: -86*

How did CC(C)(C)C#CC(O)(C#CC(C)(C)C)C#CC(C)(C)C do in these assays?
Tg IFNy HTS: 91

What do the screens show for `Cc1nc(C)n(CC(=O)NC(Cc2ccsc2)c2ncccc2C)n1` (stereo not given)?
Tg IFNy HTS: 4

Results for CCc1ccccc1NC(=O)N1CCC(c2nc(C(=O)N(C)C)c(C)o2)CC1 ?
Tg IFNy HTS: 61

What do the screens show for `O=C(CN1C(=O)CCc2cc(S(=O)(=O)N3CCOCC3)ccc21)N1CC=C(c2ccccc2)CC1`?
Tg IFNy HTS: -20

What do the screens show for `COC(=O)c1cccc(CN2CCC(n3nc(C)cc3C)C2)n1` (stereo not given)?
Tg IFNy HTS: -9

What do the screens show for `O=C(c1cnccn1)N1CCC2(CC(=O)N(c3cccc(F)c3)C2)C1` (stereo not given)?
Tg IFNy HTS: -1

What do the screens show for `CN(C)c1nc2c(c(=O)[nH]1)CCN(C(=O)c1scc3c1OCCO3)C2`?
Tg IFNy HTS: -55

What do the screens show for `O=C(O)c1cnc(-c2ccccc2)nc1`?
Tg IFNy HTS: -9

Results for Cc1oc(-c2cccc(Cl)c2)nc1CN1CCN(C(=O)Nc2ccc(F)cc2)CC1 ?
Tg IFNy HTS: -33

Results for CC(C)C(C)NC(=O)c1ncn2c(C3CCN(C(=O)C4CCCC4)CC3)ccnc12 (stereo not given) ?
Tg IFNy HTS: -34

How did CN(Cc1cc(-c2ccccc2)no1)Cc1cnc(N2CCCC2)s1 do in these assays?
Tg IFNy HTS: 8

What do the screens show for `O=C(O)C(F)(F)C12OC3C4C5CC(C6C5C3C61)C42` (stereo not given)?
Tg IFNy HTS: 24

Results for Cc1cccnc1CN1CCN(Cc2cnc(-c3ccco3)nc2)CC1 ?
Tg IFNy HTS: 18

How did O=C(O)CN1CCCC2(CCN(c3ccsc3)C2=O)C1 (stereo not given) do in these assays?
Tg IFNy HTS: -67

Results for COc1ccc(CCN2C(=O)N(C)C(=O)C23CCN(Cc2ccc(C#CC(C)(C)O)cc2)CC3)cc1 ?
Tg IFNy HTS: 26

What do the screens show for `CC1(C)CC23C(=O)CCC(O)C2(C)CCC13` (stereo not given)?
Tg IFNy HTS: 22

How did COC[C@@H]1CN(C)C[C@]12CCN(C(=O)c1ccc3ccccc3c1)C2 do in these assays?
Tg IFNy HTS: -26

How did CO[C@@H]1CC[C@H]2CCOc3ccc(C#N)cc3C(=O)N(C)C[C@@H](c3ccccc3)CC(=O)N(C)C[C@@H]1O2 do in these assays?
Tg IFNy HTS: -36

Results for CC(=O)N1C[C@@H]2C(=O)N(C)C3(CCN(S(=O)(=O)c4ccc(Cl)cc4)CC3)[C@H]2C1 ?
Tg IFNy HTS: -3

How did COc1ccc(CN(C)C[C@H]2Oc3ccc(NC(=O)Nc4ccc5c(c4)OCO5)cc3CC(=O)N([C@H](C)CO)C[C@H]2C)cc1 do in these assays?
Tg IFNy HTS: -65

Results for CC(=O)N1CCC2(CC1)OC(=O)C(C)=C2C(=O)NCCCN1CCN(c2cc(C)ccc2C)CC1 ?
Tg IFNy HTS: -40

Results for O=C1CCC2(CCN1)CCN(C(=O)c1cn[nH]c1-c1cccs1)CC2 ?
Tg IFNy HTS: 7

Results for Cc1cccc(CN2CCN(C(=O)Cn3ccc(=O)[nH]c3=O)C(C)C2=O)c1 (stereo not given) ?
Tg IFNy HTS: 5

Results for O=C(NCCCN1CCCC1=O)C1CCN(Cc2cc3ccccc3n2Cc2cccc(F)c2)CC1 ?
Tg IFNy HTS: -2

How did O=C1NCC2(CCCN(C(=O)c3csc(-c4cccs4)n3)C2)O1 (stereo not given) do in these assays?
Tg IFNy HTS: -1

What do the screens show for `CC(C)(C)c1ccc(Cn2c(=N)n(CC(O)c3ccco3)c3ccccc32)cc1` (stereo not given)?
Tg IFNy HTS: -14

How did COP(=O)(OC)OC(c1ccc(Cl)cc1)P(=O)(OC)OC (stereo not given) do in these assays?
Tg IFNy HTS: 9

How did CO[C@@H]1CC[C@H]2CCN(C)C(=O)[C@H](C)N(C)C(=O)c3cccc(C#N)c3OC[C@@H]1O2 do in these assays?
Tg IFNy HTS: -27

How did CC(C(N)=O)N1CCC=C(CN(C)C(=O)/C=C/c2ccccc2)C1 (stereo not given) do in these assays?
Tg IFNy HTS: 12

Results for CC(C)CN1CC2CCCC(C1)C2CC(=O)NCc1ccco1 (stereo not given) ?
Tg IFNy HTS: -9

Results for O=S(=O)(c1ccccc1)n1nnc2ccccc21 ?
Tg IFNy HTS: -1

What do the screens show for `Cc1c(C(=O)O)[nH]c2c1C(=O)CC(C)(C)C2`?
Tg IFNy HTS: -7

Results for CC(C)c1cc(C(=O)NCC2(c3ccc(F)cc3)CCOC2)n(C)n1 (stereo not given) ?
Tg IFNy HTS: -5

Results for O=C(O)c1ccc(N2C(=O)/C(=C\c3ccccc3)N=C2c2ccccc2)cc1 ?
Tg IFNy HTS: 20

How did COc1nc(OC)nc(-c2ccc(OC)c(OC)c2OC)n1 do in these assays?
Tg IFNy HTS: 6

Results for COc1cc2c(cc1OC)C(Nc1ccc(Br)cc1)=NC1(CCCC1)C2 ?
Tg IFNy HTS: -85*

Results for CCCC(=O)Nc1ccc2c(c1)C(=O)N(C)C[C@@H](OC)[C@H](C)CN(Cc1cc(-c3ccccc3)on1)[C@H](C)CO2 ?
Tg IFNy HTS: -81*

What do the screens show for `CCc1nnc(CN(C(=O)Cc2c(C)[nH]c3c(F)cccc23)C(C)C)o1`?
Tg IFNy HTS: -1

Results for CN(C)C1CCN(C(=O)c2ccn(-c3ccc4ccc(-c5ccncc5)cn34)n2)CC1 ?
Tg IFNy HTS: 7

Results for O=C(Cc1ccccn1)N1[C@@H]2CNc3ccccc3[C@@H]2[C@@H]1CO ?
Tg IFNy HTS: 1

What do the screens show for `CCOc1ccc(-c2ccccc2NC(=O)C2CC2)cc1`?
Tg IFNy HTS: 23

How did Cc1noc(-c2ccccc2OCC(=O)N2CCCC(c3nc4ccccc4cc3N)C2)n1 (stereo not given) do in these assays?
Tg IFNy HTS: 36

What do the screens show for `COc1cccc(COC2CN(C(=O)CSc3nnc(C)s3)CC(=O)N(CC(C)C)C2)c1` (stereo not given)?
Tg IFNy HTS: -3

What do the screens show for `Cc1nc(CCN(C)C(=O)c2cc(COc3ccccc3F)[nH]n2)no1`?
Tg IFNy HTS: -6

Results for CN1C[C@H]2CN(C(=O)Cc3cccc(F)c3)CCC[C@]2(C(=O)O)C1 ?
Tg IFNy HTS: -52

How did CN(Cc1ccccc1)C1CCCN(C(=O)CNC(N)=O)C1 (stereo not given) do in these assays?
Tg IFNy HTS: -2

How did CCn1c(=O)c(C(=O)Nc2cccc(F)c2)c(O)c2ccccc21 do in these assays?
Tg IFNy HTS: -34

Results for O=C(C1CCCc2c1[nH]c1ccccc21)N1Cc2cnn(CCO)c2C1 (stereo not given) ?
Tg IFNy HTS: 100

An excerpt; count on the stated rates, not on these rows.
